HPGD inh: qHTS Assay for Inhibitors of HPGD (15-Hydroxyprostaglandin Dehydrogenase); purified HPGD, NADH fluorescence kinetic, PGE2 substrate; Potency, µM, inactives show at the highest dose activity change, negative = inhibition, hits mostly inhibitors; 150,000 tested, 4.3% active; AID 894, 2007; active = well fitted inhibition curve with a large enough effect (not every such curve was filed as active); inconclusive = small, poorly fitted or top-dose-only effect, or another doubt; inactive = no such curve, though single readings can be large or run the other way;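 note: top concentration of the series not given in the record; plate controls included wells without enzyme; inactives centre near -10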
Target sequence (P15428 whole entry, looked up): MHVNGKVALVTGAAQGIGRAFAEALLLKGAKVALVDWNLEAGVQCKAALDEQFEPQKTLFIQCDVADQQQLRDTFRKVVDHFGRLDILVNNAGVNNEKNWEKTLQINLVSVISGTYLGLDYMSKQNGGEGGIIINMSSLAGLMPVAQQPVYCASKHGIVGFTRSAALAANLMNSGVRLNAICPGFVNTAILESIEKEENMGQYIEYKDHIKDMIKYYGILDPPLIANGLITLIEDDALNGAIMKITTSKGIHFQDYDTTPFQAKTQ
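NADH formation kinetics: reaction with 30 uM PGE2 and 1 mM NAD+ (final), 20 nM enzyme, Tris-HCl pH 8 with Tween 20, after 15 min compound preincubation at room temperature. Fluorescence change, last versus first of five reads.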
Starred values were filed as active, the others as inactive; ? = inconclusive; & = joins results of further samples. % is set by controls: 0 for no effect and ±100 for the full control effect; potency is the fitted concentration of half-maximal effect. These rows are one share of the data (hit frequency here may not be typical).

| Structure | HPGD inh |
| --- | --- |
| COc1ccc(CCN2C(=O)C3C4CC(C5C(C(=O)N/N=C\c6ccc(Cl)cc6)=NOC45)C3C2=O)cc1OC (centres undefined) | -6% |
| CCn1c(SCC(=O)NCc2cccs2)nnc1-c1ccco1 | -10% |
| CCOC(=O)C1=C(COc2ccc(F)cc2Cl)NC(=O)NC1c1cc(C)ccc1C (centres undefined) | -10% |
| CCOC(=O)C1CCCN(C(=O)C2CCN(S(=O)(=O)c3cccs3)CC2)C1 (centres undefined) | -2% |
| Cc1cc(C(=O)Nc2ccc(S(=O)(=O)Nc3onc(C)c3C)cc2)cs1 | -24% |
| CCOC(=O)c1c(NC(=O)CSc2nc3ccccc3c(=O)n2-c2ccccc2)sc(C(C)=O)c1C | -22% |
| CCN(CC)S(=O)(=O)c1ccc2c(c1)nc(CCC(=O)Nc1cccc(C(F)(F)F)c1)n2CC | -7% |
| O=C1CSC(c2ccccc2F)N1c1ccccc1 (centres undefined) | 2% |
| CN(C)S(=O)(=O)c1ccc(N2CCCC2)c(C(=O)NCc2ccc(Cl)cc2)c1 | -7% |
| CC(C)C(=O)Nc1nc(-c2ccccc2)ns1 | -18% |
| CCOC(=O)c1ccc2nc(C)cc(Nc3cccc(C(=O)O)c3)c2c1 | -16% |
| O=[N+]([O-])c1cccc(CNc2ccc3c(c2)CCC3)c1 | -14% |
| CCN(CC)S(=O)(=O)c1ccc(-c2nnc3sc4cccc(C)c4n23)cc1 | -23% |
| N/C(=N\S(=O)(=O)c1ccc(Cl)s1)c1ccccc1 | -10% |
| CCc1nc(Nc2ccc3c(c2)OCCO3)c2oc3ccccc3c2n1 | -22% |
| CCOC(=O)COc1ccc(C)cc1-c1ccno1 | -22% |
| Cc1ccsc1C(C(=O)NC1CCCCC1)N(C(=O)c1csnn1)C1CC1 (centres undefined) | 2% |
| COc1ccc(CC(N)C(=O)NC2C(CO)OC(n3cnc4c(N(C)C)ncnc43)C2O)cc1 (centres undefined) | -4% |
| CC(C)CCNC(=O)C(c1cccnc1)N(CCc1ccccc1)C(=O)Cn1nnc2ccccc21 (centres undefined) | -4% |
| CC(=O)c1cc(C#N)c(SCc2ccc(F)cc2)nc1C | -12% |
| COc1cccc(NC(=O)NCc2cccn2C)c1 | -5% |
| CCOc1ccccc1-n1nnnc1SCC(=O)Nc1cc2oc3ccccc3c2cc1OC | -8% |
| CCCCN(C(=O)c1c(C)[nH]c(C(=O)OCC)c1C)c1ccccc1 | -7% |
| COc1ccc(C(=O)NC(=S)Nc2ccc(N3CCOCC3)c(Cl)c2)cc1[N+](=O)[O-] | 8.9µM* |
| O=[N+]([O-])/C(=C\Nc1ccccc1Cl)S(=O)(=O)c1ccccc1 | 32µM* |
| COC(=O)c1nn(C23CC4CC(CC(C4)C2)C3)c2c1C(=O)N(c1ccc(F)cc1)C2=O | -4% |
| CN(C)c1ccc(C=NCCC2(O)CCOC(C)(C)C2)cc1 (centres undefined) | -19% |
| Cn1c(=O)c2c(nc(NCc3ccccc3)n2CCCc2ccccc2)n(C)c1=O | -6% |
| Cc1ccc(-c2nnc3n2N=C(c2ccccc2)CS3)cc1 | -10% |
| Cc1nc(N=Nc2ccc(C(=O)O)cc2)c(COP(=O)(O)O)c(C=O)c1O | ? |

Remaining list, next part.
| Structure | HPGD inh |
| --- | --- |
| Cc1ccc(S(=O)(=O)n2c3ccc(F)cc3c3nc(C)sc32)cc1 | -11% |
| CCOc1cc(Cl)c(S(=O)(=O)NCc2ccccn2)cc1Cl | -7% |
| O=C(O)CCc1nn2cc(-c3ccccc3)nc2[nH]c1=O | ? |
| CN1CCN(C(=O)c2ccc3ccccc3c2)CC1 | 16µM* |
| CC1=C(C(=O)N2CCN(c3cc(C)ccc3C)CC2)C2(CCCCC2)OC1=O | -12% |
| CCOC(=O)N1N=C(c2ccccc2)CC1(O)C(F)(F)F (centres undefined) | -3% |
| CCCN1C(=O)/C(=C/c2cc(C)n(C)c2C)SC1=Nc1ccc(OC)cc1 | -17% |
| COCCNc1nc(-c2ccccc2C)nc2ccccc12 | -12% |
| CCOCCCNC(=O)C1CCN(C(=O)Nc2ccc(C)cc2)CC1 | -10% |
| O=C(CN1C(=O)c2ccccc2C1=O)Nc1ccc(N2CCOCC2)cc1 | -9% |
| c1nc(N2CCN(Cc3ccc4c(c3)OCO4)CC2)c2[nH]cnc2n1 | -8% |
| CC(C)N(C(=O)C(F)(F)F)C(C(=O)NC1CCCCC1)c1ccncc1 (centres undefined) | -5% |
| COc1ccc(Cl)cc1NC(=O)COC(=O)CNC(=O)c1ccc([N+](=O)[O-])c(C)c1 | -20% |
| Cc1cc(-c2nnc3n2CCCCC3)c(C)n1-c1ccccc1 | 0.16µM* |
| Cc1ccc(-c2[nH]c(-c3ccc(C(=O)O)cc3)nc2-c2ccccc2)cc1 | ? |
| COc1ccc2c(c1)c(=O)c(C(=O)c1ccccc1)cn2Cc1ccc(C)cc1 | -5% |
| COc1ccc(CCn2c(N)c(S(=O)(=O)c3cccs3)c3nc4ccccc4nc32)cc1OC | -29% |
| N#C/C(=C\c1cn(Cc2ccccc2)c2ccccc12)C(=O)NCc1ccco1 | -10% |
| COc1ccc2c(c1OC)C(=O)N1c3ccccc3C(=O)N(c3ccccc3F)C21 (centres undefined) | -5% |
| O=C1S/C(=C/c2ccc(N3CCOCC3)o2)C(=O)N1Cc1ccc(F)cc1 | -8% |
| O=c1cc(-c2cc3ccccc3oc2=O)c2ccc(O)cc2o1 | ? |
| Cc1ccc(Nc2nc3ccccc3nc2Nc2c(C)n(C)n(-c3ccccc3)c2=O)cc1 | -20% |
| O=C(N/N=C/c1ccc(Sc2nc3ccccc3[nH]2)o1)c1ccncc1 | -7% |
| N#CC(c1ccc(F)cc1)c1ccc(C(=O)c2ccccc2)cc1 (centres undefined) | 14µM* |
| COc1cccc(OCCCCCCN2CCOCC2)c1 | -9% |
| CCSc1nnc(NC(=O)Cc2ccc(OC)c(OC)c2)s1 | -8% |
| O=C(O)/C=C(/C(=O)O)[C@]12CCN3CC4=CCO[C@@H]5CC(=O)N[C@@H]1C5[C@H]4C[C@H]32 (some centres undefined) | -5% |
| Cc1cccc(NC(=O)CCC(=O)N/N=C/c2ccco2)c1 | -13% |
| O=C(CSc1nnc(-c2ccc(F)cc2)o1)Nc1ccc(S(=O)(=O)N2CCCC2)cc1 | -10% |
| CCOC(=O)C(=O)Nc1ccc(S(=O)(=O)Nc2ncccn2)cc1 | ? |

Next structures follow:
| Structure | HPGD inh |
| --- | --- |
| Cc1cc(C)nc(SCC(=O)Nc2ccc(S(=O)(=O)N3CCCCC3)cc2)n1 | -18% |
| O=C(Nc1cccc(F)c1)N1CC[C@@]2(CCCN(S(=O)(=O)c3ccccc3)C2)C1 | -5% |
| CCOC(=O)c1cnc2cc(-c3ccc(Cl)cc3)nn2c1N | -20% |
| C=CCNC(=O)CC(C)C(CCCCC)C(=O)O (centres undefined) | -4% |
| CN(c1ccccc1)c1ccc(/C=C/[N+](=O)[O-])cc1 | 32µM* |
| Cc1ccc(-n2c(SCC(=O)NCC3CCCO3)nc3c(c2=O)SCC3)cc1 (centres undefined) | -27% |
| Cc1cccc(-c2cc3nc4c(c(N5CCOCC5)n3n2)CCCC4)c1 | ? |
| C/C(CC(=O)Nc1ccc2c(c1)OCO2)=N\NC(=O)C(c1ccccc1)c1ccccc1 | -7% |
| Cc1nnc(-c2ccc(Oc3ccc(C)c(C)c3)c([N+](=O)[O-])c2)o1 | 10µM* |
| C=CCOc1cccc(C2C(C(=O)c3ccco3)=C(O)C(=O)N2Cc2ccncc2)c1 (centres undefined) | -6% |
| COc1ccccc1-c1cc(C(=O)NCc2ccccc2)no1 | ? |
| COc1cc(/C=N/NC(=O)c2cccs2)ccc1OCc1ccccc1 | ? |
| Cc1nn(-c2ccccc2)c(C)c1C(=O)OCC(=O)N1CC(=O)Nc2ccccc21 | -19% |
| CCOC(=O)CC(=O)CSCC(=O)Nc1ccc(C)cc1 | -7% |
| Cc1cccc(C)c1NC(=O)CSc1nnc(C)n1-c1ccccc1 | -7% |
| Cc1ccc(/C=C/C(=O)N2CCN(c3cccc(C(F)(F)F)c3)CC2)cc1 | -14% |
| O=[N+]([O-])c1nn(-c2ccc3c(c2)OCCO3)n(O)c1=NCCCO | 6% |
| O=C(Nc1ccc(Cl)cc1Cl)c1n[nH]c(Cn2cncn2)n1 | -27% |
| Cc1ccc(OCCCCn2ccnc2)c(Cl)c1 | -21% |
| Cc1nc2ccccc2n1CCc1nc2c3ccccc3nc(SCC(=O)NCc3ccco3)n2n1 | -26% |
| Cc1cc2c(cc1C)NC(c1nc3ccccc3[nH]1)C1=C(CC(C)(C)CC1=O)N2 (centres undefined) | -1% |
| Cc1nc2cnc(OCc3ccccc3)nc2n(CCC#N)c1=O | -10% |
| O=C(COc1ncnc2c1cnn2-c1ccccc1)Nc1ccc(S(=O)(=O)N2CCCCC2)cc1 | -12% |
| COCCCN(C(C)=O)c1nc(-c2ccccc2)cs1 | -8% |
| COc1cccc2c(=O)c3ccoc3n(C)c12 | ? |
| Cc1ccccc1Cn1c(-c2cncs2)nc2ccccc21 | -17% |
| CN1CCN(c2ccccc2NC(=O)c2ccc(Br)o2)CC1 | -2% |
| Cc1cc(=O)oc2cc(OCC#N)ccc12 | ? |
| COC(CNC(=S)Nc1ccc([N+](=O)[O-])cc1)OC | -20% |
| COc1ccc2c(c1OC)C(=O)N(c1cccc(C(F)(F)F)c1)C2 | -3% |

Later entries
| Structure | HPGD inh |
| --- | --- |
| O=C(Nc1nnc(-c2ccc(Cl)cc2)o1)Nc1ccccc1Cl | -31% |
| Cc1ccc(SCc2cc(-c3ccc(Cl)cc3)no2)cc1 | -12% |
| O=C(Nc1ccccc1N1CCOCC1)c1cnccn1 | -12% |
| CC1CN=C(N(Cc2ccccc2)C(=O)Nc2ccccc2)S1 (centres undefined) | -6% |
| O=C(CN(C(=O)CCC(=O)Nc1nccs1)c1ccc(F)cc1)NCc1ccco1 | -4% |
| O=C(COC(=O)CNS(=O)(=O)c1ccc2ccccc2c1)Nc1ccc2c(c1)OCO2 | -5% |
| O=C(O)c1cccc(N=NN2CCCCCC2)c1 | -10% |
| COc1cc(C(=S)N2CCOCC2)ccc1OS(=O)(=O)c1ccc(NC(C)=O)cc1 | -9% |
| CC1CC(OC(=O)c2ccccc2O)CC(C)(C)C1 (centres undefined) | -22%&1% |
| COc1ccc(/C=C2/C(=O)OCc3cc(OC)c(OC)cc32)c(OC)c1 | -12% |
| Cc1cccc(-c2noc(CCCC(=O)Nc3cccnc3)n2)c1 | -9% |
| C=C(C)CSC1=C(C#N)C(c2ccccc2)CC(=O)N1 (centres undefined) | 25µM* |
| C/C(N)=C(/C#N)C(=O)CSc1ncnc2ccccc12 | -14% |
| COC(=O)c1cc(NC(=O)CC2C(=O)NCCN2C(=O)c2ccc(F)cc2)cc(C(=O)OC)c1 (centres undefined) | -18% |

Sorted by SMILES length (high to low): five of the compounds above.
| Structure | HPGD inh |
| --- | --- |
| O=C(COC(=O)CNS(=O)(=O)c1ccc2ccccc2c1)Nc1ccc2c(c1)OCO2 | -5% |
| Cc1cccc(-c2noc(CCCC(=O)Nc3cccnc3)n2)c1 | -9% |
| C/C(N)=C(/C#N)C(=O)CSc1ncnc2ccccc12 | -14% |
| CC1CC(OC(=O)c2ccccc2O)CC(C)(C)C1 (centres undefined) | -22%&1% |
| O=C(Nc1ccccc1N1CCOCC1)c1cnccn1 | -12% |

Quoted at random: 6 records from the list
| Structure | HPGD inh |
| --- | --- |
| C=C(C)CSC1=C(C#N)C(c2ccccc2)CC(=O)N1 (centres undefined) | 25µM* |
| CC1CN=C(N(Cc2ccccc2)C(=O)Nc2ccccc2)S1 (centres undefined) | -6% |
| O=C(COC(=O)CNS(=O)(=O)c1ccc2ccccc2c1)Nc1ccc2c(c1)OCO2 | -5% |
| Cc1cccc(-c2noc(CCCC(=O)Nc3cccnc3)n2)c1 | -9% |
| C/C(N)=C(/C#N)C(=O)CSc1ncnc2ccccc12 | -14% |
| Cc1ccc(SCc2cc(-c3ccc(Cl)cc3)no2)cc1 | -12% |

An excerpt of these results, with values ahead of the structure:
HPGD inh | canonical_smiles
-4% | O=C(CN(C(=O)CCC(=O)Nc1nccs1)c1ccc(F)cc1)NCc1ccco1
-6% | CC1CN=C(N(Cc2ccccc2)C(=O)Nc2ccccc2)S1 (centres undefined)
-5% | O=C(COC(=O)CNS(=O)(=O)c1ccc2ccccc2c1)Nc1ccc2c(c1)OCO2
-12% | O=C(Nc1ccccc1N1CCOCC1)c1cnccn1

Reformatted: entries from further up
HPGD inh	structure
-5%	O=C(COC(=O)CNS(=O)(=O)c1ccc2ccccc2c1)Nc1ccc2c(c1)OCO2
-10%	O=C(O)c1cccc(N=NN2CCCCCC2)c1
-9%	COc1cc(C(=S)N2CCOCC2)ccc1OS(=O)(=O)c1ccc(NC(C)=O)cc1
-22%&1%	CC1CC(OC(=O)c2ccccc2O)CC(C)(C)C1 (centres undefined)

Source: PubChem BioAssay
